miR-21 FLuc: raises the signal of a miR-21 reporter | Potency, µM (top dose mostly 38.3 µM), inactives show top-dose reporter change, positive = more light | 340,000 tested, under 10 active | HeLa miR-21 FLuc reporter, luciferase, 48 h; active = well fitted rising curve with a large enough effect; inconclusive = small, poorly fitted or top-dose-only effect; inactive = no such curve, though single readings can be large or run the other way;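 note: % of control where 0% means no effect; miR-21 action dims this reporter so a rising signal means less miR-21 action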
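HeLa miR-21-FLuc reporter line, endogenous miR-21; 2000 cells/well in DMEM/10% FBS; compound titration up to ~40uM final, 48 h, 37 degree Celsius; luciferase detection reagent, 15 min lysis, CCD luminescence.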
GLA inh pH 4.5: alpha-galactosidase A (human) inhibition, pH 4.5; activity change, negative = inhibition, % at 105 µM; 230,000 tested, under 10 active; purified enzyme, 4-MU-alpha-Gal fluorescence, pH 4.5; inconclusive = small, poorly fitted or top-dose-only inhibition, or a rising curve; inactive = flat fitted curve, though single readings scatter; no compound was filed as active;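 note: 0% = full activity with enzyme and -100% = basal without enzyme; dose as in the result columns while the protocol names 77 µM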
Rango-impB inh: Rango-importin beta binding inhibition | Q14974 | Rango CFP/YFP FRET sensor + importin beta, 45 min | Potency, µM (top dose mostly 92.2 µM), for the others: top-dose inhibition of complex formation | hit rate 0.031% among 340,000 | AID 540263; active = rising FRET ratio curve, often small or poorly fitted; inconclusive = mostly compound fluorescence or quenching in the first reads; inactive = flat curves in all reads;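 note: potency is the fitted concentration of half-maximal effect; 0% = DMSO wells and 100% = buffer wells lacking importin beta; nearly all actives have a fitted effect of over 15% in size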
Target sequence (Q14974 whole entry, looked up): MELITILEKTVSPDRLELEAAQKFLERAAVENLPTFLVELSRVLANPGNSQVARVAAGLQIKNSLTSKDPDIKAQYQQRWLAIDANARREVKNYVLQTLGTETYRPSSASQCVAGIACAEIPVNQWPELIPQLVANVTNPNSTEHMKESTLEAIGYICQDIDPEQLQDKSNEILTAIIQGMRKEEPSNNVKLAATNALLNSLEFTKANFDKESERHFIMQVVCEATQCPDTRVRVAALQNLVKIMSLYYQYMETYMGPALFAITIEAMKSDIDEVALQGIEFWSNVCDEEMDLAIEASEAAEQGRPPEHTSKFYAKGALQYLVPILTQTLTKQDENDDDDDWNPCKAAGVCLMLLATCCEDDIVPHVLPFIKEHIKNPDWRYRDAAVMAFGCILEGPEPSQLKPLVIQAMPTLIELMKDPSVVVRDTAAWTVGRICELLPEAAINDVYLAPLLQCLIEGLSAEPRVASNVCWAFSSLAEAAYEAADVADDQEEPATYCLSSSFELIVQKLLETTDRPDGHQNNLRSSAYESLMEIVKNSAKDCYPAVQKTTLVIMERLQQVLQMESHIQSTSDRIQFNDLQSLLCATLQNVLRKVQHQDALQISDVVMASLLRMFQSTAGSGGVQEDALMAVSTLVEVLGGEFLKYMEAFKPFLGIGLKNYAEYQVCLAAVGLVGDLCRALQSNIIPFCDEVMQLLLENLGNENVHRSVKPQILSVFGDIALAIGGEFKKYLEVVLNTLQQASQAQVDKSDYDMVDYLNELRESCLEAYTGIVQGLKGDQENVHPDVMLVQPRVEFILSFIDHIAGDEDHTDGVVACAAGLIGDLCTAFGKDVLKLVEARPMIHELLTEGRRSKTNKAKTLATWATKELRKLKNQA
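FRET biosensor (snurportin 1 IBB flanked by EYFP and cerulean), 50 nM, with compound 5 min, then 0.125 microM importin beta in PBS, 1 mM DTT, 0.02% Tween-20, 0.1% BSA. CFP/YFP ratio read after 45 min at room temperature; pre-read flags interference.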
Rango release inh: inhibition of RanGTP-driven Rango-importin beta dissociation; O95149+P62826; Biochemical FRET Rango-importin beta, RanGTP-induced dissociation; Potency, µM (titrated, usually from 46.1 µM), inactives show top-dose activity change, negative = inhibition; hit rate 0.071% among 340,000; active means falling FRET ratio curve, often poorly fitted, with flat reads before Ran was added; inconclusive means other falling curves, or compound fluorescence or quenching; inactive means flat or rising ratio curve;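 note: potency is the fitted concentration of half-maximal effect; % of control where 0% means no effect; nearly all actives have a fitted effect of over 45% in size; -100% = wells without RanGTP and RCC1; the record marks most hits as doubtful in a second field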
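Rango (0.1 uM)–importin beta (0.25 uM) complex; RanGTP-RCC1 trigger; 45 min RT; CFP/YFP FRET read.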
* = called active by the depositor; u = inconclusive; x = not tested or not shown; & = joins results of further samples; [ ] = dose if it differs, or a comment. An excerpt (hit frequency here may not be typical).

SMILES	Rango release inh	miR-21 FLuc	GLA inh pH 4.5	Rango-impB inh
COc1ccc(N(C(=O)c2snc(C(N)=O)c2N)C(C(=O)NCC2CCCO2)c2ccc3ncccc3c2)cc1OC (stereo unspecified)	12%	-3%	x	0.4%
Cc1ccsc1/C=C/c1n[nH]c(=O)c(C#N)c1C	-2%	-11%	x	-0.7%
Cc1ccc(N2C(=O)NC(NC(=O)c3ccc(Cl)cc3)(C(F)(F)F)C2=O)cc1 (stereo unspecified)	-15%	-6%	-2	2.8%
CC(NC(=O)C1CCCN1S(=O)(=O)c1cccc2cccnc12)c1ccccc1 (stereo unspecified)	8%	-20%	1	1.3%
O=C(NCCN1CCOCC1)c1nn2c(c1Cl)NC(c1ccccc1)CC2C(F)(F)F (stereo unspecified)	2%	1%	5	1.5%
COCC(O)CSc1nc(C)[nH]c1[N+](=O)[O-] (stereo unspecified)	0%	0%	-5	-0.9%
C=CCn1c(CCC(O)COCCCCC)n[nH]c1=S (stereo unspecified)	9%	2%	-2	2.1%
CCN(CC)C(=O)CSc1nc2ccccc2o1	10%	-49%	-5	-3.0%
COc1cccc(NS(=O)(=O)c2cc3c(cc2C)N(C(C)=O)CCO3)c1	-11%	-3%	x	-2.0%
Cn1c(=O)c2c(nc(-n3ccnc3)n2C)n(C)c1=O	-2%	-7%	-5	0.4%
NS(=O)(=O)c1ccc(-c2ccc(C=O)o2)cc1	0%	-1%	-4	u
Cc1nn(-c2ccccc2)c2nc(N)c(C#N)c(-c3ccc(C(C)(C)C)cc3)c12	-12%	-1%	1	0.5%
FC(F)(F)c1cc(Sc2ccccc2)nc(-c2ccccn2)n1	12%	-9%	-9	0.6%
Oc1cccc(NC(=S)Nc2ccc(SC(F)F)cc2)c1	14%	-22%	1	2.0%
CCCn1c(-c2ccc(OC)cc2)nc2c(=O)n(C)c(=O)[nH]c21	-13%	-4%	9	-1.3%
CCOC(=O)C(CCCCP(=O)(c1ccccc1)c1ccccc1)(NC(C)=O)C(=O)OCC	1%	-1%	-3	1.7%
Cc1cc(C)c2cc3c(N)c(C(=O)Nc4c(C)[nH]c(=O)[nH]c4=O)sc3nc2c1	-14%	-10%	-2	u
O=C(NCC12CC3CC(CC(C3)C1)C2)c1nn2cccnc2c1Cl	-7%	-24%	-13	-1.5%
Cc1onc(-c2ccccc2)c1C(=O)NCCc1ccc(Cl)cc1	0%	0%	1	-1.4%
CCOc1ccc2nc(NCCNC(=O)C3CC3)c(C)cc2c1	-12%	-10%	16	1.4%
CCCCNC(=O)/C(C#N)=C/c1ccc2c(c1)OCCO2	-16%	-7%	-3	0.7%
Cc1ccc(NS(=O)(=O)c2ccc3c(c2)n(C)c(=O)c(=O)n3C)c(C)c1	0%	0%	x	1.1%
CC(C)c1ccc2[nH]c(O)c(N=NC(=O)c3cccc(S(=O)(=O)Nc4ccccc4Cl)c3)c2c1	6%	2%	3	3.6%
Cc1ccc(-n2nc(C)c(C(=O)O)n2)c(C)c1	7%	-4%	5	-2.3%
CCS(=O)(=O)Nc1ccc(C(=O)OC)cc1	-2%	2%	-7	7.2%
Cc1ccc(-c2cc(-c3cccc(F)c3)n[nH]2)c(O)c1	37%	-26%	-8	8.2%
CCN(CC)C(=O)CSc1nc2ccccc2c(=O)n1CCC(=O)NCc1ccc(F)cc1	6%	-2%	9	0.1%
CCOc1ccc(Cl)cc1CNCCNCC(C)O (stereo unspecified)	-12%	-4%	6	6.4%
O=C(Nc1ccc(OCC(F)(F)C(F)F)cc1)c1ccncc1	11%	9%	-10	0.3%
O=C(Nc1ccc(S(=O)(=O)Nc2ncccn2)cc1)C1=NN(c2ccccc2)C(=O)CC1	21%	-3%	-1	-2.7%
C[C@H](NC(=O)c1nc[nH]c1C(=O)NCCCCCN)C(=O)OCc1ccccc1	-12%	x	x	-5.1%
CC(=O)c1nn(-c2ccccc2)cc1C(=O)c1ccc(Br)cc1	-5%	-7%	1	-1.5%
O=C(Cc1c(C(=O)O)[nH]c2ccccc12)Nc1ccc2c(c1)OCO2	-18%	-7%	7	u
CC1=C(C(=O)N2CCCC(C(=O)c3cccc(C(F)(F)F)c3)C2)OCCO1 (stereo unspecified)	2%	3%	0	4.7%
COc1ccc(S(=O)(=O)N2CCOC23CCN(C(=O)c2ccccc2Br)CC3)cc1	11%	-2%	x	5.4%
CC1(C)CN(c2ccc(N3CC(C)(C)C3=O)cc2)C1=O	4%	-42%	0	0.1%
O=C1OCc2cc(-n3cccc3)ccc21	23%	-14%	2	1.0%
O=C(Nc1nc(NC(=O)c2ccco2)n(-c2ccccc2)n1)c1ccccc1	-4%	19%	-6	4.6%
Cc1ccc(CNC(=O)C2CCC(=O)N(CCc3ccc(Cl)cc3)C2)s1 (stereo unspecified)	-8%	0%	x	-0.5%
O=C(c1ccc(NS(=O)(=O)c2ccccc2)cc1)N1CCCC1	10%	-8%	-9	0.9%
COCCCNC(=O)c1ccc(N(C)S(=O)(=O)c2ccc(OC)cc2)cc1	-15%	-3%	3	2.5%
CC(=O)NC(C(=O)N1CCC(c2nc3ccccc3s2)CC1)C(C)C (stereo unspecified)	9%	1%	x	0.9%
Nc1nc(SCC(=O)NCCc2ccccc2)[nH]c(=O)c1-c1ccccc1	x	6%	9	x
Cc1cc2c(c(N)n1)c(=O)oc1ccccc12	15%	-3%	24	0.3%
Cc1cc2nc(-c3ccc(SCC(=O)Nc4nccs4)nc3)[nH]c2cc1C	71%	-59%	-11	-3.7%
CC(C)CCNc1cc(=O)n(C)c(=O)n1C	15%	-1%	-3	0.4%
Cc1ccc(Nc2nnc(SC3CCOC3=O)s2)c(C)c1 (stereo unspecified)	u	-2%	-3	1.4%
NCC12CC3CC(C1)CC(c1ccc(Br)cc1)(C3)C2	0%	u	x	4.5%
COC(=O)c1cc(C(=O)OC)cc(N2C(=O)CN=C2Nc2nc(C)cc(C)n2)c1	2%	-8%	-7	4.7%
O=C1C2C3C=CC(CO)(O3)C2C(=O)N1c1ccc(-c2ccccc2)cc1 (stereo unspecified)	x	2%	10	x
CCOc1cccc(N(C(=O)CCC(=O)Nc2cc(C)on2)C(C(=O)NC(C)(C)C)c2ccc(OC)cc2)c1 (stereo unspecified)	-3%	2%	x	-1.8%
COc1ccc(S(=O)(=O)N(CCC#N)Cc2ccco2)cc1OC	9%	-9%	-2	2.8%
COC(C[C@@H](O)C[C@H](O)[C@H](C)OCc1ccccc1)OC	-1%	x	x	2.8%
COC(=O)C1=C(C(=O)OC)SC(=C2C(=S)C(C)(C)N(C(=O)CC(C)C)c3ccccc32)S1	2%	2%	-3	1.0%
O=C(CSc1nnc(Cc2ccccc2)o1)NCc1ccc2c(c1)OCO2	2%	-2%	3	-0.1%
COc1ccc(S(=O)(=O)NC(C)C(=O)NCc2ccncc2)cc1Cl (stereo unspecified)	-6%	-2%	x	0.6%
C=CCSc1nnc(NC(=O)c2ccc(S(=O)(=O)NCC3CCCO3)cc2)s1 (stereo unspecified)	7%	0%	-4	4.7%
COc1ccc(-c2c(C)oc3c(CN4CCCC(C)C4)c(O)ccc3c2=O)cc1OC (stereo unspecified)	7%	0%	x	4.0%
Cc1ccc(-c2nnc(N3CCN(C(=O)COc4cccc(C)c4)CC3)c3ccccc23)cc1	1%	29%	-6	1.7%
CC(=O)c1cnc2sccn2c1=O	2%	3%	2	-4.6%

2 compounds drawn at random from the list so far:
SMILES	Rango release inh	miR-21 FLuc	GLA inh pH 4.5	Rango-impB inh
COc1ccc(S(=O)(=O)NC(C)C(=O)NCc2ccncc2)cc1Cl (stereo unspecified)	-6%	-2%	x	0.6%
COc1ccc(S(=O)(=O)N(CCC#N)Cc2ccco2)cc1OC	9%	-9%	-2	2.8%

(list continues)
SMILES	Rango release inh	miR-21 FLuc	GLA inh pH 4.5	Rango-impB inh
O=C1CCCC/C1=C\Nc1ccc(O)cc1	1%	-18%	5	-3.5%
CC(C)c1ccc(/C=C2\SC(=O)N(CC(=O)NCCCn3ccnc3)C2=O)cc1	-4%	-27%	x	6.3%
Cc1c(CC(=O)O)c(=O)oc2cc3occ(-c4ccccc4)c3cc12	-9%	-4%	x	-2.8%
CCOC(=O)c1cnc(Nc2nc3ccccc3o2)nc1CSc1ncccn1	14%	x	x	-0.3%
O=C(c1ccc2c(c1)OCO2)N1CCC2(CC1)Oc1ccc(F)cc1C(=O)C21CC(c2ccc(Cl)cc2)=NO1 (stereo unspecified)	-8%	-6%	-3	1.1%
CC(C)NC(=O)C1CC(=O)N(c2ccc(F)c(Cl)c2)C1 (stereo unspecified)	4%	-3%	4	-0.5%
Cc1cccc(OCC(=O)OCC(=O)c2c(N)n(C)c(=O)n(C)c2=O)c1C	6%	-2%	7	2.2%
CC(C)CC(NC(N)=O)C(=O)Nc1ccc(Cl)c(Cl)c1 (stereo unspecified)	7%	14%	4	0.7%
Cc1c(NC(=O)CSCc2ccc(Br)cc2)c(=O)n(-c2ccccc2)n1C	-18%	0%	0	-3.5%
O=C(COC(=O)c1n[nH]c2ccccc12)Nc1ccc(Cl)cc1[N+](=O)[O-]	u	-2%	2	0.1%
COC(=O)COc1ccc(C2NC(=O)NC(c3ccccc3)=C2C(C)=O)cc1OC (stereo unspecified)	5%	-3%	-1	0.0%
C[C@@H](C(=O)NC1CCCC1)N1C(=O)N2CCc3c([nH]c4ccccc34)[C@@]2(C)C1=O	-12%	9%	x	-1.6%
CCOC(=O)C(=CNc1ccc(NC2=NCC(C)(C)S2)cc1)C(=O)OCC	9%	26%	-14	-1.5%
Cc1ccc(CNS(=O)(=O)c2c(C)n(C)c(=O)n(C)c2=O)cc1	-10%	6%	4	1.9%
CCNc1cc(Cl)nc(SC)n1	7%	-19%	0	-1.4%
CC(=O)c1cccc(NC(=O)CCOc2ccccc2)c1	8%	-31%	-5	5.4%
O=C1NC2(CCCCCC2)N=C1c1ccc(Br)cc1	-13%	-7%	-8[21.1 µM]	-1.3%
COc1ccc(CCNC(=O)C(=O)NCCC2CCCCN2S(=O)(=O)c2ccccc2)cc1 (stereo unspecified)	-6%	x	x	u
CSc1nc2c(c(=O)[nH]1)C(c1ccncc1)C(C(=O)OC(C)C)=C(C)N2 (stereo unspecified)	1%	-8%	7	5.6%
COCC(C)NC(=O)CCSc1nc(-c2ccc(OC)cc2)cc(C(F)(F)F)n1 (stereo unspecified)	27%	11%	-5	-4.8%
O=C1CCN(S(=O)(=O)c2ccc(Cl)cc2)CCN1	18%	-6%	10	-1.5%
O=C1CCC([N+](=O)[O-])C(c2cccc3ccccc23)N1 (stereo unspecified)	15%	1%	-1	-0.3%
CCN(CC(=O)NCc1ccc(F)cc1)C(=O)c1cccnc1SC	9%	0%	x	1.9%
COC(=O)c1cn(CCOc2ccccc2F)c2ccccc12	-14%	-40%	-1	2.4%

Ordered by length of the SMILES (highest first): three of the compounds above
SMILES	Rango release inh	miR-21 FLuc	GLA inh pH 4.5	Rango-impB inh
COCC(C)NC(=O)CCSc1nc(-c2ccc(OC)cc2)cc(C(F)(F)F)n1 (stereo unspecified)	27%	11%	-5	-4.8%
CCOC(=O)C(=CNc1ccc(NC2=NCC(C)(C)S2)cc1)C(=O)OCC	9%	26%	-14	-1.5%
Cc1ccc(CNS(=O)(=O)c2c(C)n(C)c(=O)n(C)c2=O)cc1	-10%	6%	4	1.9%

Further compounds
SMILES	Rango release inh	miR-21 FLuc	GLA inh pH 4.5	Rango-impB inh
Cn1cnnc1SCC(=O)NCc1cccc(C(F)(F)F)c1	-17%	-16%	0	-1.1%
COc1ccc(N/C=C2\CCOC2=O)cc1	1%	-14%	-5	2.2%
C[C@@H]1CN(C2CCN(Cc3nc(CC4CC4)no3)CC2)C[C@H](C)O1	23%	-5%	-1	-0.7%
O=C(NC1CCCCCC1)C1CCCN(S(=O)(=O)c2cnc[nH]2)C1 (stereo unspecified)	19%	-3%	0	-2.3%
CCCCN(C(=O)CSc1c(C)c(C)cc(C)c1C)c1c(N)n(CCC)c(=O)[nH]c1=O	-12%	x	x	3.7%
Cc1ccc(C)c(C(=O)COC(=O)CCCC(=O)Nc2cc(C(F)(F)F)ccc2Cl)c1	15%	-5%&-4%	-14	-0.6%
